WNV NS2B-NS3 inh: WNV NS2B-NS3 proteinase inhibition; P06935; WNV NS2B-NS3 protease, fluorogenic substrate Ex360/Em465; active compounds read low; z-score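 (tested at a level between 10 and 100 µM)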; 65,000 compounds, 0.18% hits; AID 577;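 active = z-score at -3 or under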;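 also: score is relative to mean and spread of the compound wells of a plate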
Target sequence (P06935 1371-1501 limits assumed): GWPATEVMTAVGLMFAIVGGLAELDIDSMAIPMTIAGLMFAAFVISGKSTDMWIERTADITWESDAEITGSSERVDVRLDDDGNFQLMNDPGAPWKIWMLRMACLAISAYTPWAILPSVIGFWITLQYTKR
Target sequence (P06935 1502-1679 limits assumed): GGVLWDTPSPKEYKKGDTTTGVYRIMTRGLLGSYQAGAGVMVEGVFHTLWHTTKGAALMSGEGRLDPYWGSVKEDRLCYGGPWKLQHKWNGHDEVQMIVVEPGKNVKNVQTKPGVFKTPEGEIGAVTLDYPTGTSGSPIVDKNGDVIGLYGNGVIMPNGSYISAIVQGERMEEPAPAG
MT1-MMP promoter: MT1-MMP gene expression reporter suppression – cell-based, luciferase reporter, luminescence (AID 618); calls from a first round at 10 µM; hits with a dose series show EC50 in µM; 87,000 compounds, 0.62% hits; MT1-MMP promoter luciferase reporter cells, luminescence;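 active = over half of the reporter light lost at 10 µM or EC50 under 50 µM; inactive = the rest and hits that failed the dose series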;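 also: actives suppress MT1-MMP promoter-driven transcription so potencies describe inhibitors; HT1080 fibrosarcoma cells; overnight exposure; toxic or luciferase-blocking compounds were not removed from the actives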
Hsc70: small molecules displacing fluorescent ligand from Hsc70 – biochemical, fluorescence polarization, primary screen (AID 568); Hsc70 fluorescence polarization, probe displacement; higher % means a stronger effect; strong numbers were not always called active; displacement, % at 20 µM; hits with a dose series show IC50 in µM; 83,000 tested, under 10 active;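 active = displacement above 50% without optical interference and an IC50 on retest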;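 also: ATPase domain with a fluorescein-tagged ATP probe; 0% = vehicle and 100% = excess ADP; read after one hour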
* marks the source's active call; other numbers are inactive results; i = inactive; / = not tested or not shown; + = active, no number. Outcome played no part in choosing rows; overall some 0.87% were active at least once.

SMILES	WNV NS2B-NS3 inh	MT1-MMP promoter	Hsc70
CC1Cc2nc(SCC(=O)NC3CCCCC3)n(C)c(=O)c2S1 (centres undefined)	0.07	i	-5.9%
Cc1ccc(C(=O)NC(C)(COc2nonc2C)COc2nonc2C)cc1	1.8	i	-1.8%
COC(=O)C(C)Sc1ncnc2c1nnn2-c1ccc(F)cc1 (centres undefined)	-0.65	i	-0.1%
O=C(NC1CCCC1)c1ccc(CS(=O)(=O)c2cccc(C(F)(F)F)c2)o1	0.13	i	-3.2%
Cc1nnc(SCC(=O)NCc2ccc(Cl)cc2)[nH]c1=O	-0.65	i	3.5%
CC12C(=O)N(CCC(=O)O)C(=O)C1C1C=CC2C1 (centres undefined)	-0.25	i	-11%
CC(C)(C)OC(=O)N1CCC[C@H]1c1nnc(SCc2c(Cl)cccc2Cl)o1	0.22	i	-2.1%
N#Cc1c(/N=C/c2ccco2)sc2c1CCCCC2	-0.58	i	-2.6%
O=C(c1ccc(Cl)c(S(=O)(=O)NCc2ccco2)c1)N1CCN(c2ccc(F)cc2)CC1	/	i	-3.3%
COC(=O)Cn1c(=O)cnc2ccccc21	0.85	i	-11%
Cc1ocnc1C(=O)Nc1ccc(Cl)cc1	-0.12	i	2.4%
CCOc1ccc(NC(=O)CSc2nc3c(c(=O)n2C)SC(C)C3)cc1 (centres undefined)	-1.7	i	-0.1%
Cc1cc(=O)[nH]c(SC/C=C/c2ccccc2)n1	-1.1	i	0.4%
COc1ccc(C(=O)c2oc3ccccc3c2NC(C)=O)cc1	/	i	0.5%
COc1ccc(NS(=O)(=O)c2cc(C(=O)O)ccc2C)cc1	-0.2	i	-1.7%
Cc1cc(C)cc(C(=O)N2CCCCCC2)c1	/	i	-6.1%
CCOC(=O)CSc1cccc2cccnc12	0.37	i	-1.9%
C=CCn1c(=O)c2ccccc2n2c(SCC(=O)c3ccccc3)nnc12	0.01	i	90%
CCCC(c1nnnn1Cc1ccc(OC)cc1)N1CCN(c2ccccc2)CC1 (centres undefined)	-0.86	i	7.0%
COc1cccc(C2=NOC(C(=O)Nc3cc(C)nn3-c3ccccc3)C2)c1OC (centres undefined)	0.59	i	8.2%
COc1ccc(C(=O)COC(=O)[C@H](C)Nc2ccc(C(F)(F)F)cc2[N+](=O)[O-])c(OC)c1	/	i	-60%
COc1ccc(NC(=O)C2CSC3c4ccccc4C(=O)N23)cc1 (centres undefined)	0.04	i	-10%
CCC(Sc1nc2cc(OC)c(OC)cc2c2nc(C)nn12)C(=O)NCc1ccco1 (centres undefined)	0.49	i	5.9%
O=C(NC1CCCCC1)C(c1ccncc1)N(Cc1ccc2c(c1)OCO2)C(=O)C(F)(F)F (centres undefined)	/	i	-5.4%
COc1ccccc1Nc1nc(C2(C)CCC(=O)O2)cs1 (centres undefined)	-0.16	i	-6.9%
CC(C)c1ccc(C(=O)CSc2ncn[nH]2)cc1	-1.6	i	-0.9%
CCC(C)C1C(C#N)=C(N)OC2=C1C(=O)CC(C)(C)C2 (centres undefined)	0.04	i	1.6%
Nc1cc(Cl)ccc1Oc1ccc(Cl)cc1	/	i	-0.3%
O=C(O)CCc1ccc(-c2ccc(Cl)cc2)o1	/	i	-2.5%
O=c1[nH]c(SCc2cc(=O)n3ccccc3n2)nc2c1CCC2	0.45	i	-1.3%
O=C(Nc1nnc(SCc2ccccc2)s1)c1cc2c(s1)CCCC2	/	i	-1.2%
CCOc1ccccc1OCC(=O)O	-0.73	i	-0.7%
CCOC(=O)c1cnn2c(C(F)F)cc(C3CC3)nc12	-0.09	i	3.0%
CCOC(=O)c1c(C)oc2c1c(C(c1ccncc1)N1CCOCC1)c(O)c1ccccc12 (centres undefined)	0.62	i	7.2%
Cn1cc(Br)c(C(=O)NC2CCCCC2)n1	0.34	i	7.7%
CC(NC(=O)c1ccc(Cl)cc1)C(=O)NC1=NCCS1 (centres undefined)	-0.43	i	-5.4%
CCN(CC)C(=O)N1CCC(NC(=O)c2ccc(C(C)(C)C)cc2)CC1	-0.55	i	1.8%
CCn1c(SCC(=O)Nc2cc(C)on2)nc2sc3c(c2c1=O)CCCC3	0.45	i	-15%
CC(C)N(C(=O)CSc1ncnc2sc(-c3ccccc3)cc12)C(C)C	/	i	-4.3%
Cn1c2c(c(=O)n(C)c1=O)CN(Cc1ccc3c(c1)OCO3)CN2	-0.6	i	5.2%
CCN(CC)S(=O)(=O)c1ccc2[nH]cc(C(=O)NCCc3ccccc3)c(=O)c2c1	-0.68	i	0.2%
COCCCn1c(SCC(=O)Nc2cccc(C)n2)nnc1-c1ccco1	1.1	i	4.2%
CSc1nsc(SC)c1C(=O)NCCNS(=O)(=O)c1ccc(C)cc1	0.28	i	12%
CCc1sc(C(=O)NCc2cc(C)n(C)n2)cc1Br	1.2	i	4.0%
O=C(NCc1ccc(F)cc1)C1CC(=O)N(CCc2ccccc2)C1 (centres undefined)	-1.1	i	-6.4%
CCCCOC(=O)CSc1nnc(-c2ccc(Cl)cc2Cl)o1	0.23	i	-0.6%
CCOC(=O)CC(=O)CSc1nc2ccc(C)cc2cc1C#N	-0.28	i	-20%
O=C1CCC2CCCCC2(O)O1 (centres undefined)	-1.6	i	-0.4%
CC(C)Oc1ccc(Cn2c(=O)sc3ccccc32)cc1	/	i	-4.4%
COc1ccc(C2NC(=O)c3ccccc3O2)cc1OC (centres undefined)	/	i	3.3%
CCOc1cc2[nH]c(=O)n(CCCCC(=O)N3CCCCCC3)c(=O)c2cc1OCC	-0.36	i	2.7%
CCOC(=O)CN1CC23C=CC(O2)C(C(=O)NCc2ccc(F)cc2)C3C1=O (centres undefined)	-0.11	i	3.0%
CCCCC(=O)Nc1cc(N(C)C)nc2ccccc12	-0.4	i	1.1%
COc1ccccc1OCC(O)Cn1nc(C)cc1C (centres undefined)	0.08	i	-0.9%
O=C1CCC(=O)N1CN(C(=O)c1ccco1)c1ccc(Cl)c(Cl)c1	0.04	i	2.9%
COc1ccc(-c2cc(C(F)(F)F)nc(SCCC(=O)Nc3cc(C)on3)n2)cc1	-0.75	i	0.2%
N#CCCn1ncn(-c2ccccc2)c1=S	-0.18	i	-3.9%
COC(=O)c1sc(NC(=O)c2cc3c(s2)CCCC3)nc1C	-0.75	i	-11%
O=C(Nc1ccc(N2CCCCC2)cc1)c1ccc(F)cc1	-0.18	i	-0.4%
CC(Sc1nc(N2CCOCC2)nc(N2CCOCC2)n1)C(=O)Nc1ccccc1 (centres undefined)	0.18	i	2.2%
The results go on.
SMILES	WNV NS2B-NS3 inh	MT1-MMP promoter	Hsc70
CCOc1ccc(C(=O)NCC(C)C)cc1	/	i	4.3%
CCOC(=O)CCSc1nc2c(c(C(F)(F)F)c1C#N)CCC2	1.6	i	-5.8%
CC1(C)Cc2nc3sc4c(SCC(=O)NCc5ccco5)ncnc4c3cc2CO1	0.03	i	-5.5%
CCOC(=O)c1c(C)[nH]c(C(=O)COC(=O)C2(C)CC2(Cl)Cl)c1C (centres undefined)	/	i	-1.3%
CCCN(C(=O)Cc1nc(N)n[nH]1)C1(C(=O)Nc2c(C)cccc2C)CCCCC1	-0.1	i	-3.2%
O=C1C2C3C=CC(CC3)C2C(=O)N1c1ccc2c(c1)OCO2 (centres undefined)	/	i	-3.3%
NC(=O)c1c(N)sc2c1CCCC2	-0.83	i	-5.4%
COc1ccc(C2=[N+]([O-])C(C)(C)N(O)C2(C)C)cc1	0.34	i	6.9%
CC(=O)c1cccc(NC(=O)C2CCN(S(=O)(=O)c3ccc(F)cc3)CC2)c1	1.4	i	0.7%
COc1cc2[nH]c3c(=O)n(CCN(C(C)C)C(C)C)cnc3c2cc1OC	-0.61	i	-2.0%
CCC(Sc1nc(C)cc(=O)[nH]1)C(=O)Nc1nnc(C)s1 (centres undefined)	-0.07	i	-5.0%
CCC1(c2cccc(Cl)c2)NC(=O)N(Cc2cc(C(=O)OC)c(C)o2)C1=O (centres undefined)	0.02	i	1.0%
O=C(NCc1ccc2c(c1)OCO2)c1ccncc1	0.59	i	6.6%
Oc1ccc(CNc2ccccc2F)c2cccnc12	3.1	i	-10%
COc1ccc(CC(=O)NC(C)c2nnc(SCc3nc4ccccc4c(=O)[nH]3)n2C)cc1 (centres undefined)	1	i	-2.3%
Cc1cc2oc(=O)cc(Cn3ccnc3)c2cc1C	0.31	i	-8.3%
Cc1cc(C)c(C)c(S(=O)(=O)NCc2cccnc2)c1C	-0.78	i	-5.2%
O=S(=O)(c1ccc2c(c1)OCCO2)N1CCC(c2nc3ccc(Cl)cc3[nH]2)CC1	-0.54	i	-2.7%
S=c1[nH]nc(C2COc3ccccc3O2)o1 (centres undefined)	0.71	i	9.5%
CCCc1cc(-n2ccnc2C)n2c(nc3ccccc32)c1C#N	-1.1	i	-0.4%

4 entries picked at random from those above, as already listed:
SMILES	WNV NS2B-NS3 inh	MT1-MMP promoter	Hsc70
CCCCC(=O)Nc1cc(N(C)C)nc2ccccc12	-0.4	i	1.1%
CCc1sc(C(=O)NCc2cc(C)n(C)n2)cc1Br	1.2	i	4.0%
COc1ccc(CC(=O)NC(C)c2nnc(SCc3nc4ccccc4c(=O)[nH]3)n2C)cc1 (centres undefined)	1	i	-2.3%
Cc1ocnc1C(=O)Nc1ccc(Cl)cc1	-0.12	i	2.4%

Some of these compounds in order of number of heavy atoms, largest number first:
SMILES	WNV NS2B-NS3 inh	MT1-MMP promoter	Hsc70
CC(=O)c1cccc(NC(=O)C2CCN(S(=O)(=O)c3ccc(F)cc3)CC2)c1	1.4	i	0.7%
CCCc1cc(-n2ccnc2C)n2c(nc3ccccc32)c1C#N	-1.1	i	-0.4%
CCOC(=O)CCSc1nc2c(c(C(F)(F)F)c1C#N)CCC2	1.6	i	-5.8%
O=C1C2C3C=CC(CC3)C2C(=O)N1c1ccc2c(c1)OCO2 (centres undefined)	/	i	-3.3%
CCC(Sc1nc(C)cc(=O)[nH]1)C(=O)Nc1nnc(C)s1 (centres undefined)	-0.07	i	-5.0%
O=C(NCc1ccc2c(c1)OCO2)c1ccncc1	0.59	i	6.6%
CCOc1ccc(C(=O)NCC(C)C)cc1	/	i	4.3%

Further entries follow.
SMILES	WNV NS2B-NS3 inh	MT1-MMP promoter	Hsc70
O=C(Nc1ccc2c(c1)OCO2)C1CC(c2ccc(Cl)cc2)=NO1 (centres undefined)	/	i	-6.0%
O=C(NC1CC2CCCC(C1)N2CC(=O)N1CCCc2ccccc21)C1CCCCC1 (centres undefined)	0.13	i	5.7%
COc1ccc(-n2c(=O)c3ccccc3n(CC(=O)NC3CCCCC3)c2=O)cc1	/	i	-0.3%
O=C(COC(=O)c1ccc(Br)o1)Nc1nc2ccccc2s1	-0.41	i	-4.9%
COc1ccc(C(C)=O)cc1COC(=O)c1ccc2c(c1)OCO2	1.3	i	-6.3%
CC1(C)Cc2c(ccc3ccccc23)C(c2cc3ccccc3oc2=O)=N1	/	i	0.7%
Cc1ccc2cc(CN(C(=O)c3cccnc3)C(C)C)c(=O)[nH]c2c1	-0.79	i	-14%
CC(C)(C)n1ncc2c(=O)n(CC(=O)NCc3ccc(F)cc3)cnc21	-0.51	i	7.8%
CC12C(=O)N(c3nccs3)C(=O)C1C1C=CC2C1 (centres undefined)	-1.2	i	-7.6%
CC(C)Oc1ccccc1C1CC(=O)Nc2cc3c(cc21)OCO3 (centres undefined)	-0.26	+	-4.2%
Cc1ccc(C(=O)Nc2cc(=O)n(C)c(=O)n2C)o1	/	i	5.3%
Cc1nn(Cc2ccc(Cl)cc2)c(C)c1NC(=O)c1c(-c2ccccc2)noc1C	/	i	-3.2%
O=c1cc(CO)oc(C(Nc2ccccn2)c2ccc(F)cc2)c1O (centres undefined)	/	i	-4.7%
CCOC(=O)c1ccc(NC(=O)CCC(=O)OC)cc1	-0.52	i	-3.2%
O=C(CN1CCCN(Cc2ccc(F)cc2Cl)C1=O)NCc1ccccc1	-1.1	i	1.6%
Cc1cccc(OCc2nnc(SCC(=O)Nc3cc(C)on3)n2C)c1	-0.12	i	2.8%
Cc1ccccc1NC(=O)CCN1C(=O)CSC1=O	/	i	-0.8%
CCOC(=O)c1c(C)[nH]c(C(=O)OCC(=O)Nc2cc(Cl)ccc2OC)c1C	/	i	-7.6%
COc1cccc(C2C(C(=O)OCc3ccccc3)=C(C)Nc3ncnn32)c1OC (centres undefined)	0.13	i	5.8%
Cc1ccc(S(=O)(=O)N2CCOCC2)cc1C(=O)O	1.4	i	-1.3%
CSc1nsc(SCC(=O)N2CCN(c3ccccc3)CC2)n1	2.7	i	3.7%
COc1ccc(CNc2cccc(F)c2)cc1Br	/	i	3.0%
Cc1csc(NC(=O)c2ccccc2O)n1	-1.3	i	-3.1%
O=C(NCCN1CCOCC1)Nc1ccc(Cl)cc1Cl	1.4	i	-6.7%
CC1CCCCN1CC(=O)NCc1ccc2c(c1)OCO2 (centres undefined)	0.56	i	1.8%
Cc1cccc(C)c1N1CCN(c2ccc3nnc(C(F)(F)F)n3n2)CC1	/	i	5.4%
C=COCCNC(=O)Nc1ccc(Cl)cc1Cl	-0.71	i	2.8%
O=C(Nc1ccccc1C(=O)OC1CCOC1=O)c1ccco1 (centres undefined)	-1.7	i	5.3%
COc1ccc(C2CC(c3ccc(OC)cc3)n3nc(NC(=O)c4ccco4)nc3N2)cc1 (centres undefined)	1.7	i	2.2%
C/C(=N\O)C1(C)N(O)C(C)(C)C(c2ccc(F)cc2)=[N+]1[O-] (centres undefined)	/	i	-0.7%
